Compound activity as filed in PubChem.
Mtb MenB inh: blocks the Mycobacterium tuberculosis MenB enzyme | P9WNP5 | MenB enzyme assay, absorbance read-out; some hits fall short of the stated cut | inhibition, %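 (about 12 µg/mL by stock and volumes)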 | 100,000 tested, 0.43% active | AID 540299;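 active = mean of two replicates above 30%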;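 note: 0% = no compound and 100% = wells with inactive enzyme; the first replicate is given; strong numbers were not always called active; inactives centre near -10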
Mtb MbtI inh: MbtI salicylate synthase inhibition. P9WFX0. purified MbtI enzyme, fluorescence intensity read-out. inhibition, %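 (about 17 µg/mL by stock and volumes)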. 100,000 tested, 0.89% active. AID 493033;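 active = above 50% in both replicates, above 80% if mildly self-fluorescent; inactive = the rest, strongly fluorescent compounds included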;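 note: 0% = mean of negative and 100% = mean of positive controls; one replicate is shown; some compounds called inactive have numbers as strong as hits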
Target sequence (P9WFX0 whole entry, looked up): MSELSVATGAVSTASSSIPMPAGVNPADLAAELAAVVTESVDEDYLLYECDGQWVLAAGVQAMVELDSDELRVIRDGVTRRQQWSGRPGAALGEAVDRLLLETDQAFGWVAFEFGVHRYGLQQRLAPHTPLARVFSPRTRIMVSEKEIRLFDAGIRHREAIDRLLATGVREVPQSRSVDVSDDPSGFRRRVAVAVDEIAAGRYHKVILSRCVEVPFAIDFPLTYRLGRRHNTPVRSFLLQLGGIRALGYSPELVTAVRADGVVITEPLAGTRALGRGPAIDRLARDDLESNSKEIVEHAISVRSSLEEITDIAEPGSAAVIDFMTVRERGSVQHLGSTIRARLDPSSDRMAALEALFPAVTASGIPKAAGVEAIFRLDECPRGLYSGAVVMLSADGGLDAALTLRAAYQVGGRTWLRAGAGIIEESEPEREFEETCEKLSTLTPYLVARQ
Polio RdRp inh: poliovirus RNA polymerase inhibition; % elongation, % (compound at 16.7 µg/mL); P03300; 150,000 tested, 0.66% active; poliovirus polymerase elongation, fluorescence polarization; hits give low values; in the data active = % elongation below about 90%; note: some results filed as inactive read as strong as hits
Target sequence (P03300 1749-2209 limits assumed): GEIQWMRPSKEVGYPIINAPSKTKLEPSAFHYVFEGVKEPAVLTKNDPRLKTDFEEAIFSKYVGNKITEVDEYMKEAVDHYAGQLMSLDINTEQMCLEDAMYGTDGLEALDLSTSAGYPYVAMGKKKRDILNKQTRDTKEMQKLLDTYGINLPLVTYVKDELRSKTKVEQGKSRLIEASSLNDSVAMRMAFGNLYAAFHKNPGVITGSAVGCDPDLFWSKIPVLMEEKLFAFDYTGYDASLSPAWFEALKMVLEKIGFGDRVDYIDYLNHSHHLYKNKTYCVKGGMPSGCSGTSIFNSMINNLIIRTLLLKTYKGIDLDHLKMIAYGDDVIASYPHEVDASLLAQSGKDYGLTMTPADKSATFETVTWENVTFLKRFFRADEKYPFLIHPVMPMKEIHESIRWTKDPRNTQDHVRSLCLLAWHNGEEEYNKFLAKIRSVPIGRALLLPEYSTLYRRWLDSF
Polio RdRp inh intensity: second read-out of Polio RdRp inh, no call of its own (marks repeat the call); % elongation; measured here: total intensity read-out; formula for this scale not given here;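 total fluorescence in place of polarization; lower means less elongation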
* = called active by the depositor; / = no result given. Compounds were not picked by outcome; overall some 1.7% were active at least once.

SMILES	Mtb MenB inh	Mtb MbtI inh	Polio RdRp inh	Polio RdRp inh intensity
CC1=NN(C(=S)c2ccc(C)cc2)C(C)(O)C1CC(C)C (configuration not stated)	-92	/	108	104
CCCn1c(SCC(N)=O)nnc1C(C)C	-29	-12	105	101
Nc1nc(-c2ccc3c(c2)CC(=O)N3)cs1	-11	41	103	98
Cc1c(N=C2SC(CC(=O)O)C(=O)N2/N=C/c2ccccc2O)c(=O)n(-c2ccccc2)n1C (configuration not stated)	-74	-3	102	106
Cc1ccccc1NC(=O)c1ccc(CN2CC(=O)N3CCCCC3C2=O)cc1 (configuration not stated)	-22	0	105	103
O=C(CCN1C(=O)c2ccccc2C1=O)OCc1ccc(F)cc1	-6	-4	103	104
CC(=O)ON1C(=O)c2cccc3c(Br)ccc(c23)C1=O	7	/	98	102
Cn1c2ccc(Br)cc2c2nnc(SCc3ccc4nonc4c3)nc21	-5	/	110	113
O=C(O)CSc1nc(-c2ccccc2)nc2c1CCCC2	29	4	100	101
Cc1cnc2c(c1)N1CCC2CC1	39*	2	102	104
COC[C@@H]1N=C(C)OC1c1ccccc1 (some centres not stated)	0	/	101	80
Cc1ccccc1C1C2=C(CCCC2=O)Nc2c1c(=O)[nH]c(=O)n2-c1ccccc1 (configuration not stated)	-36	7	103	100
O=C(COc1cccc2c1CCN(Cc1ccccc1)C2=O)N1CCCCCC1	-8	0	100	99
O=C(CCn1c(=S)oc2ccccc21)Nc1cccc(O)c1	-20	1	102	96
Cc1occc1-c1nnc(SCC(=O)N(C)C2CCCc3ccccc32)n1C (configuration not stated)	5	-7	100	115
Cc1ccc(C(=O)NC(=S)N2CCNC(=O)C2)cc1I	-35	-4	106	100
CSc1cccc(NC(=S)NCc2cccn2C)c1	4	6	100	103
CC(C)C(=O)Nc1ccc(-c2nc3cc(C(C)C)ccc3o2)cc1	-1	101	101	102
COc1ccccc1/C=C1/Sc2ccc(C(=O)N3CCN(c4ncccn4)CC3)cc2N(C)C1=O	-35	-4	103	101
CCCn1nc(C(=O)N(C)Cc2ccc(OC)cc2OC)c2ccccc2c1=O	2	5	101	96
O=C(NCc1cccc(C(F)(F)F)c1)c1ccccn1	2	10	99	97
COc1ccc(C2CC(=O)C(C=NCCN3CCNCC3)=C(O)C2)cc1 (configuration not stated)	-13	18	101	102
O=C(c1cc2ccccc2oc1=O)N1CCN(Cc2ccc3c(c2)OCO3)CC1	-7	-1	106	101
Cc1nnc(SCC(=O)n2c3c(c4c2CCCC4)CCCC3)n1Cc1ccccc1	-37	10	105	104
CC1Cc2cc(OCC(=O)O)ccc2C1=O (configuration not stated)	-21	/	90	96
CC(C(=O)O)N1C(=O)NC2NC(=O)NC21 (configuration not stated)	-2	-15	102	101
CC1=CC(=O)N(c2ccc(C)cc2)C1c1ccc(Cl)cc1 (configuration not stated)	14	20	104	103
CCn1c(CCNC(=O)c2ccccc2OC)nc2ccccc21	-2	-1	101	104
O=P(O)(CN1CCOCC1)C1CCCCC1O (configuration not stated)	-20	-16	103	101
O=C(NC1CCCCCC1)N1CCOCC1	-11	-26	102	102
C/C(=N\N=C(N)N)c1ccc(C)cc1	-72	-4	104	102
CC1Cn2c(nnc2C23CC4CC(CC(C4)C2)C3)S1 (configuration not stated)	-1	-8	100	103
Fc1cccc(CNCC2CCCO2)c1 (configuration not stated)	-22	/	111	106
CN(CC(=O)NCCc1ccccc1)c1nnc(N2CCCC2=O)s1	-1	-9	103	104
COc1ccc(NC(C)=O)cc1NC(=O)C(NC(=O)c1cc(OC)c(OC)c(OC)c1)C(C)C (configuration not stated)	-6	-7	101	106
COC(=O)c1cnn2c1NCN(Cc1cccc(OC)c1)C2	12	-1	100	105
O=C(O)CCP(=O)(O)CN1CCCCC1	-24	-4	107	100
COc1ccc(NC(=O)c2ccco2)c(NC(=O)c2ccc(I)cc2)c1	-12	-5	100	103
CCCn1c(=N)c(C(N)=O)cc2c(=O)n3cc(C)ccc3nc21	-69	115	103	104
O=C(O)CP(=O)(O)c1ccc(Cl)cc1	-13	7	99	100
CS(=O)(=O)N1CCC(C(=O)NCC2CCCO2)CC1 (configuration not stated)	-64	-9	101	102
Cc1ccc2nc(COc3ccccc3C#N)cc(=O)n2c1	-6	3	98	105
CCN(C(=O)C1Cc2ccccc2CN1S(=O)(=O)c1ccc(F)cc1)c1ccccc1 (configuration not stated)	-16	-9	106	103
CC(C)C(=O)OCc1cc(=O)n2cc(Br)ccc2n1	-2	7	103	98
Cc1ccc2c(c1)nc(C(=O)O)n2CCO	-5	-8	98	101
N#CC1=C2SCN(Cc3ccccc3)CN2C(=O)CC1c1cccs1 (configuration not stated)	-16	92	100	101
COc1cc(C)nn1-c1ccc(Cl)cc1	/	-6	101	96
O=C(COc1ccc(F)cc1Cl)NCC1CN(Cc2ccccc2)CCO1 (configuration not stated)	-32	1	100	95
Cc1ccc(S(=O)(=O)N(C)C)cc1C(=O)OCC(=O)c1cc2c3c(c1)CC(=O)N3CCC2	-26	-2	106	99
Cc1ccc(Cc2cnc(NC(=O)C(c3ccccc3)c3ccccc3)s2)cc1	-16	/	104	111
CC(=NCC1CCCO1)C1=C(O)CC(C)(C)CC1=O (configuration not stated)	-9	14	99	102
CCC(=O)Nc1ccc2c(c1)nc(CCNC(=O)c1ccccc1)n2C	19	-2	100	104
CC(=O)OC(C(=O)NCc1ccc(F)cc1)c1ccccn1 (configuration not stated)	-30	-12	102	105
NC(=O)CN1C(=O)C(O)(CC(=O)c2ccc(Cl)s2)c2ccccc21 (configuration not stated)	8	19	100	98
C=CCN1C(=O)/C(=C/c2cc(C)n(-c3ccc(CC)cc3)c2C)SC1=S	6	-5	104	110
O=C1c2ccccc2N2C(=O)CCC2(C(=O)Nc2ccc(N3CCCCC3)cc2)N1Cc1ccccc1 (configuration not stated)	-9	-3	98	103
O=C(NCCC1=CCCCC1)c1cccc2c1C(=O)N(C1CCCCC1)C2	-19	11	100	100
CC(=O)Nc1cc2c3c(c1)CCC(=O)N3CCC2	-1	-5	103	105
c1cncc(Nc2nc(-c3cccs3)cs2)c1	-14	/	112	109
O=C(NCCN1CCN(c2cccc(Cl)c2)CC1)C1c2ccccc2C(=O)N2CCc3ccccc3C12 (configuration not stated)	3	-8	100	102
More structures:
SMILES	Mtb MenB inh	Mtb MbtI inh	Polio RdRp inh	Polio RdRp inh intensity
Cc1ccccc1-n1ccc(=O)[nH]c1=O	-19	-1	110	114
CCc1nnc(NC(=O)c2ccc(N3C(=O)C4C5C=CC(C5)C4C3=O)cc2)s1 (configuration not stated)	-18	-7	102	105
CC1CC(C)CN(C(=O)CSC2=NCCS2)C1 (configuration not stated)	3	-2	104	104
CCN(CC)S(=O)(=O)c1cccc(C(=O)N2CCc3ccccc3C2)c1	/	-13	102	97
O=C(Nc1ccc2oc(-c3cc(I)ccc3Cl)nc2c1)c1ncn[nH]1	10	-21	99	104
CC(C(=O)O)c1ccc2c(c1)[nH]c1ccc(Cl)cc12 (configuration not stated)	-4	-22	97	100
Cc1cc(C)c2c(n1)sc1c(Cl)ncnc12	-6	13	103	106
O=C1CCC(OC(=O)c2ccccc2)CC1	-2	-9	100	101
NN(Cc1ccccc1)c1ccccc1	/	-11	100	98
OP(=S)(c1ccncc1)c1ccncc1	-15	6	101	104
O=C(Nc1ccccc1)N1CCn2c1nc1ccccc12	1	1	102	103
Cc1cc(-c2ccc(S(=O)(=O)N3CCCCC3)s2)on1	-13	-11	103	103
CN1C(=C2C(=O)NC(=O)NC2=O)Sc2ccccc21	-13	-6	103	103
CN1CCN(CC(C)(C)N)CC1	-85	2	103	103
CN1N=C2c3ccccc3CCC2C1c1ccc(C#N)cc1 (configuration not stated)	-16	-7	103	106
CNS(=O)(=O)c1cc(-c2nnc(Nc3ccc4c(c3)OCO4)c3ccccc23)ccc1C	-13	-5	103	108
COc1ccc(NC(=O)CN(C)C2CCS(=O)(=O)C2)cc1 (configuration not stated)	-8	-6	105	105
Cc1ccc(S(=O)(=O)N2CCC(On3nnc4ccccc43)CC2)cc1	-4	-20	100	101
Cc1ccc(-n2nnc(C(=O)N3CCCCC3)c2N)cc1	-50	-4	103	100
Cc1ccc(C(=O)n2c(=S)sc3ccccc32)cc1	/	25	99	95
Cc1ccsc1C(=O)OCC(=O)NCc1ccccc1	/	-9	103	105
N#C/C(=C(/O)CSc1nc2ccccc2o1)c1nc2ccccc2[nH]1	-2	-3	111	122
Cc1csc(Nc2ccccc2)n1	/	72*	95	94
CC(=O)Nc1sc2c(c1CN1CCN(S(=O)(=O)c3ccccc3)CC1)CCCC2	-13	-14	103	109
CCN(CC)Cn1cnc2c(SC)ncnc21	-8	8	104	103
O=C1CCC(C(=O)NC(c2ccccc2)c2ccccc2)=NN1	5	17	102	102
CC1(C)CC(=O)C2=C(C1)OC(N)=C(C(=O)OC(C)(C)C)C21C(=O)Nc2ccccc21 (configuration not stated)	-16	-6	100	100
CN(C)C(CNC(=O)c1ccc2c(c1)OCO2)c1ccco1 (configuration not stated)	-11	44	107	108
CCn1ncc(NC(=S)NCc2ccco2)c1C(N)=O	-7	0	102	102
CCc1ccccc1NC(=O)N1CCC(NC(=O)C(C)(C)C)CC1	-31	-14	103	106
CCCC(=O)NCc1nc2ccccc2n1C(C)c1ccccc1 (configuration not stated)	-9	-13	102	100
O=c1cc(CSc2n[nH]c(=O)n2C2CC2)c2ccc(O)cc2o1	-44	-3	101	94
O=C(O)CCC1=NN2C=Nc3sc4c(c3C2NC1=O)CCCC4 (configuration not stated)	5	2	100	102
Cc1cccc(NC(=O)c2ccc(Br)o2)c1	-5	/	105	104
Cc1cc(Oc2ccc(=O)n(C)n2)nc(=S)[nH]1	-23	28	100	101
Cc1sc2ncn(CC(=O)NC3CCCCCC3)c(=O)c2c1S(=O)(=O)N1CCN(c2ncccn2)CC1	-18	-3	103	102
O=c1cc(O)c2ccccc2[nH]1	-155	55	101	100
O=C(COC(=O)c1cc(-c2ccco2)nc2ccccc12)c1ccccc1	-23	106	114	120
COC(=O)/C=C/S(=O)(=O)c1ccc2ccccc2c1	-2	101*	99	101
O=S(=O)(NC1CCCCCC1)c1ccc(F)c(F)c1	/	-8	100	103
CC1CCCCN1C(=O)Cn1c(=O)cnc2ccccc21 (configuration not stated)	11	104	99	104
CCN(C(=O)CS(=O)(=O)c1ccccc1)c1ccccc1C	-3	-13	101	103
CN(C)c1ccc(C(CNC(=O)c2ccc3c(c2)OCO3)N2CCc3ccccc32)cc1 (configuration not stated)	0	-15	99	102
CCCN(CC(=O)Nc1ccccc1OC)C(=O)c1ccncc1	-14	0	106	104
CCCCN(C)S(=O)(=O)c1cc(-c2cc(C(=O)OCC)no2)ccc1OC	2	-17	98	101
CC(C)C(NC(=O)C1CCCCC1)C(=O)O (configuration not stated)	2	-1	100	102
O=C(C1CCCN(c2ncnc3c2nc2n3CCCCC2)C1)N1CCCCCC1 (configuration not stated)	-23	2	103	101
Cc1ccc(C(=O)N2CCN(c3ccccc3)CC2)cc1	3	-2	103	100
Cc1ccc(N(C(=O)c2ccccc2C)S(=O)(=O)c2ccc(Cl)cc2)cc1	-42	4	103	102
Cc1ccc(-c2nc3ccc(Cl)cn3c2Nc2ccc3c(c2)OCO3)o1	-33	26	102	104
COc1ccc(-c2nnn(CN(C)Cc3sccc3C)n2)cc1OC	9	13	99	106
Cc1nc(NC(=O)COC(=O)c2cccn2C)c(Cl)cc1Cl	3	12	/	/
Cn1nc(C(=O)NCc2ccccc2)cc1C(=O)NCc1ccccc1	-5	-4	101	102
COc1ccc(-c2nc(CSCC(=O)O)c(C)o2)cc1	4	110	99	96

Grouped by structure, the entries above with an aryl methoxy group (13)
SMILES	Mtb MenB inh	Mtb MbtI inh	Polio RdRp inh	Polio RdRp inh intensity
COc1ccccc1/C=C1/Sc2ccc(C(=O)N3CCN(c4ncccn4)CC3)cc2N(C)C1=O	-35	-4	103	101
CCCn1nc(C(=O)N(C)Cc2ccc(OC)cc2OC)c2ccccc2c1=O	2	5	101	96
COc1ccc(C2CC(=O)C(C=NCCN3CCNCC3)=C(O)C2)cc1 (configuration not stated)	-13	18	101	102
CCn1c(CCNC(=O)c2ccccc2OC)nc2ccccc21	-2	-1	101	104
COc1ccc(NC(C)=O)cc1NC(=O)C(NC(=O)c1cc(OC)c(OC)c(OC)c1)C(C)C (configuration not stated)	-6	-7	101	106
COC(=O)c1cnn2c1NCN(Cc1cccc(OC)c1)C2	12	-1	100	105
COc1ccc(NC(=O)c2ccco2)c(NC(=O)c2ccc(I)cc2)c1	-12	-5	100	103
COc1cc(C)nn1-c1ccc(Cl)cc1	/	-6	101	96
COc1ccc(NC(=O)CN(C)C2CCS(=O)(=O)C2)cc1 (configuration not stated)	-8	-6	105	105
CCCN(CC(=O)Nc1ccccc1OC)C(=O)c1ccncc1	-14	0	106	104
CCCCN(C)S(=O)(=O)c1cc(-c2cc(C(=O)OCC)no2)ccc1OC	2	-17	98	101
COc1ccc(-c2nnn(CN(C)Cc3sccc3C)n2)cc1OC	9	13	99	106
COc1ccc(-c2nc(CSCC(=O)O)c(C)o2)cc1	4	110	99	96
